High-throughput results deposited in PubChem BioAssay by National Center for Advancing Translational Sciences (NCATS).
HSD17B inh: blocks hydroxysteroid 17-beta dehydrogenase activity | Potency, µM (titrated, usually from 57.1 µM), inactives show top-dose activity change, negative = inhibition, most hits filed as inhibitors | recombinant HSD17B10, NADH fluorescence kinetic; many of its hits are not listed in these tables | Q99714 | 75,000 tested, 7.6% active | AID 893; active = well fitted inhibition curve with a large enough effect; inconclusive = small, poorly fitted or top-dose-only effect; inactive = no such curve, though single readings can be large or run the other way;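 note: the protocol describes HADH2 (HSD17B10) and not the HSD17B4 of the title; nearly all actives have a fitted effect of over 70% in size; most hits overshoot -100% by far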
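Enzyme plus compound, 15 min room temperature; substrate mix added (NAD+ 1 mM, beta-hydroxybutyryl-CoA 90 uM final); plates read kinetically for NADH fluorescence. HADH2 was His-tagged, E. coli-derived, 20 nM.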
Active calls of the source: *; ? = inconclusive; [ ] = dose if it differs, or a comment. % is set by controls: 0 for no effect and ±100 for the full control effect; potency is the fitted concentration of half-maximal effect. The list is partial; the hit share may differ from the screen's.

nr	SMILES	HSD17B inh
1	Cc1nc(-n2nnc3ccccc32)c2c3c(sc2n1)CCCC3	31.6µM*
2	Cc1nc(N)c(C#N)c(-c2ccccc2)c1C	-0.3%
3	O=C(NCSC1=NCCS1)c1ccccc1	-2.6%
4	Cc1ccc(S(=O)(=O)N2CCC(C(=O)N3CCC[C@H]3C(=O)NC3CCS(=O)(=O)C3)CC2)cc1 (some centres undefined)	4.0%
5	CCOC(=O)c1cnc2cc3c(cn2c1=O)CCCC3	25.1µM*
6	O=c1[nH]c(=O)n(Cc2ccco2)c2c1C(C(F)(F)F)(C(F)(F)F)N=C(C1CCCCC1)N2	18.7%
7	CCCn1c(SCc2cc(=O)[nH]c3ccccc23)nc2c1c(=O)n(C)c(=O)n2C	10.3%
8	CC(C)(C)C(=O)Nc1ccc(-c2cn3ccsc3n2)cc1	4.3%
9	CCCC1(C(=O)OCC)NC(c2cc(OC)c(OC)c(OC)c2)C2C(=O)N(CC)C(=O)C21 (centres undefined)	10.5%
10	COc1ccc(Nc2ccc3c(c2)=NC2(CCCCC2)[N+]=3[O-])cc1	-14.3%
11	Cc1oc(-c2cccc(Cl)c2)nc1CN1CCC(C(=O)NCC2CCCO2)CC1 (centres undefined)	14.5%
12	COC(=O)c1ccc(NC(=O)CN2CCN(c3ccccc3)CC2)cc1	8.2%
13	O=C(CSc1n[nH]c(C2CCCC2)n1)NC1CCCC1	17.4%
14	CC1(C)Cc2c(sc3ncnc(N)c23)CO1	?
15	O=C(O)c1cc(S(=O)(=O)Nc2cccc(F)c2)ccc1Cl	2.3%
16	COc1ccccc1CCNC(=O)c1ccc(C)o1	-1.6%
17	CC(=O)O[C@@H](C)C[N+](C)(C)C	5.1%[25.6 µM]
18	Cc1cc2cc(CNC(=O)CCC(=O)O)ccc2[nH]1	-2.3%
19	CN(C)CC(=O)Nc1cc(C(F)(F)F)ccc1Cl	9.1%
20	N#Cc1nc(Cc2cccc3ccccc23)oc1NCc1ccco1	-17.1%
21	Cc1cc(C)n(-c2ccc(C(=O)OCC(=O)c3ccc(Br)s3)cc2)n1	-22.7%
22	CC[C@]1(O)C[C@@H]2CN(CCc3c([nH]c4ccccc34)[C@](C(=O)OC)(c3cc4c(cc3OC)N(C=O)[C@H]3[C@@](O)(C(=O)OC)[C@H](C(=O)OC)[C@@]5(CC)C=CCN6CC[C@]43[C@H]65)C2)C1	-27.1%
23	O=C(NCCCN1CCN(c2cccc(Cl)c2)CC1)c1ccc(N2CCCC2=O)cc1	1.6%
24	CC1CCN(Cc2nc3c(c(=O)n(C)c(=O)n3C)n2CCCc2ccccc2)CC1	8.3%
25	CCOC(=O)C1CCN(C(=O)c2cccc(NC(=O)C(CC)CC)c2)CC1	-0.4%
26	CC(=O)Nc1ccc(Oc2cc(C#N)c(C#N)cc2N2CCCCCC2)cc1	?
27	O=C(O)c1c(Br)c(Br)c(Br)c(Br)c1C1c2ccc(O)cc2Oc2cc(O)ccc21	0.794µM*
28	CO[C@@H]1COC(=O)C/C=C\[C@@H](C)[C@H](OC)COC(=O)C/C=C\[C@H]1C	9.1%[11.4 µM]
29	CN(C)Cc1cn(CCC(=O)O)c2ccccc12	-1.5%
30	O=S(=O)(NC1CCCC1)c1ccc(S(=O)(=O)N2CCc3ccccc32)cc1	-2.5%
31	CCC1CC(C)(C(=O)Nc2ccc(S(N)(=O)=O)cc2)OC1=O (centres undefined)	4.6%
32	Cc1ccc(C)c(/C(O)=C2/C(=O)C(=O)N(CCN3CCOCC3)C2c2ccc(C)o2)c1 (centres undefined)	2.9%
33	COC(=O)C1CCN(C(=O)C23CCC(C)(C(=O)O2)C3(C)C)CC1 (centres undefined)	3.3%
34	CCOC(=O)C1CCCN(S(=O)(=O)c2c(C)c(C)cc(C)c2C)C1 (centres undefined)	-9.6%
35	COc1ccccc1NC(=O)Cc1csc(N)n1	3.6%
36	Cc1ccc(-c2ccc(=O)n(CC(=O)NCCCN3CCCCC3C)n2)cc1 (centres undefined)	?
37	CCN(c1ccc(OC)cc1)S(=O)(=O)c1ccc2c(c1)CCN2C(=O)CCC(=O)O	7.3%
38	CCOc1ccccc1C(=O)N1CCCCC1C (centres undefined)	0.9%
39	CCCc1nc(SCC(=O)N2CCc3ccccc32)c2c(=O)n(C)c(=O)n(C)c2n1	11.9%
40	Cn1cc(-c2nc3cnc(N4CCOCC4)nc3n(CCC#N)c2=O)c2ccccc21	7.1%
41	Cc1n[nH]c(=O)nc1NCc1ccccc1	11.5%
42	CC1CC(C)CN(Cc2nc3c(c(=O)n(C)c(=O)n3C)n2Cc2ccccc2Cl)C1 (centres undefined)	25.1µM*
43	CCCC(=O)Nc1cc(-c2nn(C)c(=O)c3ccccc23)ccc1OC	2.0%
44	CCc1c2c(nc3ccccc13)OC(C)C2 (centres undefined)	-1.7%
45	OCC(O)C(O)[C@H](O[C@H]1OC(CO)C(O)C(O)C1O)[C@H](O)CO (some centres undefined)	6.4%
46	Cc1cc(=O)n2c(n1)OC(CO)C2 (centres undefined)	-2.0%
47	COC(=O)c1ccc(NC(=O)c2ccc(CN3CCOCC3)cc2)cc1	5.0%
48	CCn1c(=O)cc(SCC(=O)NCCCN2CCN(c3ccccc3F)CC2)c2ccccc21	-5.0%
49	COCC(=O)Nc1c(C(=O)Nc2cccc(OC)c2)oc2ccccc12	-11.3%
50	Cc1nc(C)c(C(=O)NCc2ccc(Cl)cc2)o1	-6.9%
51	COc1ccc(CCn2c(-n3nc(C)cc3C)nc3c2c(=O)[nH]c(=O)n3C)cc1	1.6%
52	CC(C)(C)OC(=O)NCCCCCc1nnc(SCC(N)=O)o1	-4.4%
53	CCOc1ccc(-n2c(C)nc3cc(C(=O)NCCCN4CCOCC4)ccc32)cc1	?
54	O=C(NCC1CCCO1)c1cccc(N2C(=O)C3C4C=CC(C4)C3C2=O)c1 (centres undefined)	8.9%
55	CCn1c(=O)cc(SCC(=O)N2CCN(c3ccccn3)CC2)c2ccccc21	-13.0%
56	CCC(=O)N1CCN=C1SCc1ccccc1	1.4%
57	Cn1cccc1C(=O)N1CCC[C@@]2(CCN(C(c3ccccc3)c3ccccc3)C2)C1	-1.4%
58	O=C(Nc1cccc(O)c1)C1CCCN1C(=O)OCc1ccccc1 (centres undefined)	6.4%
59	C[C@]1(OC(=O)/C=C\c2ccccc2)C[C@@H](O)[C@@]2(O)C=CO[C@@H](O[C@H]3O[C@@H](CO)[C@@H](O)[C@@H](O)[C@@H]3O)[C@H]21	2.0%[25.6 µM]
60	CC1(C)CC(=O)c2cc(C(=O)N3CCN(CCO)CC3)c(=O)n(-c3ccc(Cl)cc3)c2C1	5.7%

(further entries)
nr	SMILES	HSD17B inh
61	O=C(NCCc1ccccc1F)[C@@H]1CSC2c3ccccc3C(=O)N21 (some centres undefined)	-0.6%
62	CCCCOc1ccc(C(=O)Nc2cccc(C)n2)cc1	?
63	CCCN(CCC)S(=O)(=O)c1ccc(C(=O)Nc2nnc(CSC)o2)cc1	7.2%
64	Cc1ccc(NC(=O)c2ccc(S(=O)(=O)N3CCCC3)cc2)cc1	4.5%
65	Cn1c(=O)n(C)c2cc(NC(=O)c3cc4ccccc4o3)ccc21	-2.8%
66	COc1ccc(C2C3=C(CC(C)(C)CC3=O)Oc3ncn4nc(-c5cccnc5)nc4c32)cc1OC (centres undefined)	6.8%
67	Cn1c(CNc2ccc(Cl)cc2)nc2ccccc21	0.8%
68	COc1ccc(S(=O)(=O)N2Cc3ccccc3CC2C(=O)Nc2ccc(O)cc2)cc1OC (centres undefined)	-21.0%
69	COc1cccc(Nc2ncnc3c2cnn3-c2cccc(C)c2)c1	?
70	Cc1c(Cl)c(S(N)(=O)=O)cc2c1=NC=NS=2(=O)O	3.1%[11.4 µM]
71	O=C(CCC(=O)NC1CC1)Nc1nnc(C2CCCCC2)s1	8.0%
72	CC1(Cc2ccc3c(c2)OCO3)NC(=O)NC1=O (centres undefined)	-0.8%
73	CCC1Oc2ccc(C)cc2N(CC(=O)NCCN2CCCCCC2)C1=O (centres undefined)	8.4%
74	COc1ccc(N2CCN(c3nc4ccccc4n3CC(=O)c3ccccc3)CC2)cc1	3.5%
75	CCN1C(=O)Cc2cc(S(=O)(=O)N3CCOCC3)ccc21	0.7%

Retrieved by compound from the list above, 3 records:
nr	SMILES	HSD17B inh
75	CCN1C(=O)Cc2cc(S(=O)(=O)N3CCOCC3)ccc21	0.7%
65	Cn1c(=O)n(C)c2cc(NC(=O)c3cc4ccccc4o3)ccc21	-2.8%
63	CCCN(CCC)S(=O)(=O)c1ccc(C(=O)Nc2nnc(CSC)o2)cc1	7.2%

Back to the main list; the three compounds before the break are reprinted first.
nr	SMILES	HSD17B inh
73	CCC1Oc2ccc(C)cc2N(CC(=O)NCCN2CCCCCC2)C1=O (centres undefined)	8.4%
74	COc1ccc(N2CCN(c3nc4ccccc4n3CC(=O)c3ccccc3)CC2)cc1	3.5%
75	CCN1C(=O)Cc2cc(S(=O)(=O)N3CCOCC3)ccc21	0.7%
76	O=C(CCN1C(=O)C2C3C=CC(C3)C2C1=O)Nc1nccs1 (centres undefined)	-4.2%
77	Cc1cc(C)cc(OC(=O)N2CCOCC2)c1	4.9%
78	CCC(=O)c1ccccc1OCCSc1nc(C)cc(=O)[nH]1	-8.7%
79	O=C(CCc1ccc(O)cc1)c1c(O)cc(O)cc1O[C@@H]1O[C@H](CO)[C@@H](O)[C@H](O)[C@H]1O	4.4%
80	CN1CCN(c2cc(=O)n(C3CCCCC3)c(=O)[nH]2)CC1	7.2%
81	Cc1ccc(SCc2cc(=O)n3[nH]cnc3n2)cc1	9.9%
82	CC(=O)c1cccc(NC(=O)Nc2ccc3c(c2)N(C)C(=O)CS3)c1	-21.3%
83	CCN1C(=O)CC(C(=O)Nc2ccc(F)cc2)SC1=Nc1cccc(OC)c1 (centres undefined)	-11.0%
84	CCOC(=O)C1CCN(C(=O)C2CCCCC2)CC1	3.1%
85	O=C(CNC(=O)c1ccco1)NCC(=O)OCc1ccccc1Br	3.6%
86	CCOc1cc2c(cc1OCC)C(c1ccc(O)c(OC)c1)NCC2 (centres undefined)	-3.1%
87	O=C1c2ccccc2C(=O)c2c1ccc(O)c2O	31.6µM*
88	Cc1cc(Oc2ccc(-c3ccccc3)cc2)n2ncnc2n1	-0.7%
89	COC(=O)c1ccc(CCc2cc(O)ccc2O)cc1	0.794µM*
90	Cc1cc2nc(-c3ccc(NC(=O)C(C)C)cc3)oc2cc1C	2µM*
91	CCOC(=O)C1CCCN(Cc2nc(N)nc(Nc3ccc(Cl)cc3)n2)C1 (centres undefined)	7.2%
92	c1ccc(C2[C@H]3CN(CC4CCCCC4)[C@H](c4ccccc4)C34CC2(c2ccccc2)C4)cc1 (some centres undefined)	-7.9%
93	CCOC(=O)c1ccc(Nc2c(CC)c(C)nc3ncnn23)cc1	-14.0%
94	CCN(CC)C(=O)CCC(=O)Nc1ccc(C(=O)OC)cc1	-3.2%
95	C1=CN2CCC1C(c1ccccc1)C2 (centres undefined)	8.5%
96	CC1CC(C)CN(CCCNC(=O)CNC(=O)Cn2ccc3ccccc3c2=O)C1 (centres undefined)	2.2%
97	Cc1cccc2cc(C#N)c(SCC(=O)N3CCC(C)CC3)nc12	-19.6%
98	CC(C)Oc1ccccc1-c1nc(SCC(=O)O)n[nH]1	-14.0%
99	COc1ccc(CCN2CC(C#N)=C3c4cc(OC)c(OC)cc4CCN3C2)cc1OC	-8.2%
100	Cc1nc2ccccc2c(=O)n1/N=C/c1cn(-c2ccccc2)nc1-c1cccs1	10.2%
101	O=C(NCc1ccco1)C1CN(S(=O)(=O)c2ccccc2)CCN1S(=O)(=O)c1ccccc1 (centres undefined)	-17.8%
102	CCCOC(=O)C1[C@H]2C(=O)N(CCCOC)C[C@]23C=C[C@H]1O3 (some centres undefined)	8.4%
103	O=C(CSc1nnc(Cc2cc(=O)[nH]c(=O)[nH]2)n1-c1ccc(F)cc1)N1CCCCC1	12.8%
104	CCCCCCNC(=O)c1c(O)c2cccc3c2n(c1=O)CCC3	-20.1%
105	c1ccc(-n2ncc3c(N4CCN(c5ccccn5)CC4)nc(N4CCCCCC4)nc32)cc1	-13.4%
106	Cc1occc1-c1nnc(SCC(=O)NCc2cccs2)n1-c1ccc(F)cc1	7.3%
107	Cc1ccc(-c2nnc3ccc(SCC(=O)Nc4cc(C)on4)nn23)cc1	?
108	CS(=O)(=O)N1CCC[C@@]2(CCN(c3ccccc3)C2)C1	0.8%
109	O=c1[nH]ncc2c3ccccc3n(Cc3ccc(F)cc3)c12	-1.5%
110	CCOc1ccc(-c2cn(S(=O)(=O)c3cccc4nsnc34)nc2N)cc1	-7.5%
111	CCOc1ccc(NC(=O)CN2CCN(CC(=O)Nc3ccc(F)c(F)c3)CC2)cc1	-3.3%
112	COCC(C)NC(=O)c1ccccc1OC(C)=O (centres undefined)	118.1%[activator]
113	CC1CCCN(S(=O)(=O)c2cc(Cl)ccc2Cl)C1 (centres undefined)	-0.3%
114	Cc1cccc(CNc2ncnc3ccc(-c4cccc(C#N)c4)cc23)c1	25.1µM*
115	CCn1c(SCc2cccc(C(=O)O)c2)nnc1-c1ccccc1	12.0%
116	Cc1cc(SCC(=O)c2ccc(Br)cc2)cc(C)[o+]1	-9.2%[11.4 µM]

A draw from above in order of heavy-atom count, smallest number first:
nr	SMILES	HSD17B inh
116	Cc1cc(SCC(=O)c2ccc(Br)cc2)cc(C)[o+]1	-9.2%[11.4 µM]
108	CS(=O)(=O)N1CCC[C@@]2(CCN(c3ccccc3)C2)C1	0.8%
111	CCOc1ccc(NC(=O)CN2CCN(CC(=O)Nc3ccc(F)c(F)c3)CC2)cc1	-3.3%
